Screening results: PubChem, several laboratories
UUG fidelity = modulators of start codon recognition fidelity in yeast. S. cerevisiae UUG-firefly luciferase reporter, luminescence/redox ratio. AID 602363. activity score, % at 18.7 µM. 350,000 tested, 0.13% active;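 active = replicate mean at a twofold rise or more, about +100% in these data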;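 also: firefly luciferase made from a UUG start codon reports start codon fidelity; reporter light over untreated wells divided by growth signal over untreated wells; some hits fall short of that in this replicate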
PABP polyA inh = blocks human PABP binding to poly(A) RNA; 290,000 tested, 1% active; inhibition, % at 35 µM; fluorescence polarization; P11940;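 active = 50% or more with normal probe brightness, or confirmed in later tests; inconclusive = above 50% with abnormal brightness, or retests that disagree; inactive = below 50% or failed in later tests; about a fifth of its hits are not listed in these tables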;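 also: calls also rest on retests at 20 µM and on dose response follow-up; controls were probe without protein and protein plus probe with vehicle; some compounds called inactive have numbers as strong as hits; many hits fall short of the cut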
Target sequence (P11940 whole entry, looked up): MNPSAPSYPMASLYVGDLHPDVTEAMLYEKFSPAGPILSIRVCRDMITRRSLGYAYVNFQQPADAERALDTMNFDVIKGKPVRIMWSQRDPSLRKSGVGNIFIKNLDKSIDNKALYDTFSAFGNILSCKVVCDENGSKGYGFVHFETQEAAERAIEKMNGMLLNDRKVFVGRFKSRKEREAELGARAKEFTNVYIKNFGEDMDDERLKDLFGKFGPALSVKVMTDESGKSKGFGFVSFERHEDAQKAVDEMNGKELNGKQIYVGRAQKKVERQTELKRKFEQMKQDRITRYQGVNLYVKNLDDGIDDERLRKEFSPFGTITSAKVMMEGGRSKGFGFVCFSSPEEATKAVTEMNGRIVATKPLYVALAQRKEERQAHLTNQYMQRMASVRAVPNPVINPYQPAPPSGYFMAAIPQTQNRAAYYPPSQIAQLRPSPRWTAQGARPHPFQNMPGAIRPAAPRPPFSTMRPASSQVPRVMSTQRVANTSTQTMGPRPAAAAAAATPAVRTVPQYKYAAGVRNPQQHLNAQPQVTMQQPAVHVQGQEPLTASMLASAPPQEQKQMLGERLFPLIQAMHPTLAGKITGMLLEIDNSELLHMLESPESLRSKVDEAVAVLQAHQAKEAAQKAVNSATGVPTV
CSC inhib = blocks cancer stem cells; AID 2717; 300,000 tested, 1.1% active; inhibition, % at 7.5 µM; cancer stem cell-like cells viability, luminescence;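 active = mean at 75% or more and at least half the replicates too; inconclusive = mean and replicates disagree; tested in HMLE shEcad cells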;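 also: 0% = median of negative and 100% = median of positive control wells; the first replicate is given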
eIF4H FP inh = inhibitors of RNA binding by human eIF4H; inhibition, % at 35 µM; eIF4H fluorescence polarization binding assay; Q15056; 290,000 tested, 0.94% active;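 active = 50% or more with normal probe brightness, or confirmed in later tests; inconclusive = above 50% with abnormal brightness, or retests that disagree; inactive = below 50% or failed in later tests; about a fifth of its hits are not listed in these tables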;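 also: calls also rest on retests at 20 µM and on dose response follow-up; 0% = protein and probe with vehicle and 100% = probe without protein; strong numbers were not always called active; many hits fall short of the cut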
HIV Env fusion = inhibitors of HIV Env-mediated cell fusion. HeLa-JRFL Env/CEM21 cell fusion, luciferase. 360,000 tested, 1.1% active. inhibition, % at 12.3 µM. AID 651610;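 active = mean replicate inhibition score of at least 50 and every replicate individually at or above 50; inconclusive = only one of the two criteria met; inactive = mean below 50 and not all replicates reaching 50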;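 also: 0% = plate neutral controls and 100% = maraviroc near 300 nM; one replicate is shown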
MT1-MMP act inh = MT1-MMP (human) activation inhibition; HT1080 RFP-PRO-GFP cells, GFP/RFP ratio fluorescence, overnight; percent of plate control window, DMSO zero; GFP/RFP ratio change, % at 20 µM; 360,000 tested, 0.061% active; AID 651647;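 active = GFP/RFP ratio change of at least 30% with cell ATP level not reduced by more than half and red fluorescence within 50% of control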; also: strong numbers were not always called active
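Assay system – RFP-PRO-GFP reporter HT1080 cells · Compound dosing – single dose of 20 µM compound, 1% DMSO final · Incubation – overnight compound exposure at 37 °C · Measure – GFP/RFP fluorescence ratio · Benchmarks – DMSO wells and RFP-L50D-GFP cells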
Rce1 inh = inhibitors of yeast Ras-converting enzyme. Q03530. yeast membranes, quenched prenylated peptide cleavage fluorescence. calls only. 290,000 tested, 0.27% active. AID 2563;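 active = fall in fluorescence gain of 50% or more versus controls, with final raw signal at or below 3038400; inconclusive = same 50% fall but final raw signal above 3038400; inactive = fall in fluorescence gain under 50%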;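 also: plate controls were neutral control wells for no effect and wells lacking membranes for full effect; tested at 10 µM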
eIF4H FP inh retest = further read-out of eIF4H FP inh, marked with its call; inhibition, %; compound at 20 µM; confirmation average;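 mean of two retest wells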
PABP polyA inh retest = recorded beside PABP polyA inh, whose call it bears; inhibition, %; compound at 20 µM; confirmation repeats;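 mean of two retest wells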
MT1-MMP act inh RFP = second read-out of MT1-MMP act inh, no call of its own (marks repeat the call); RFP signal change, %; measured here: RFP expression control read;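 0 = vehicle wells; hits needed this value within 50% of zero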
* hit, by the source's call; i = inactive; ? = inconclusive; · = not tested or not shown; & = joins results of further samples.

SMILES	UUG fidelity	PABP polyA inh	CSC inhib	eIF4H FP inh	HIV Env fusion	MT1-MMP act inh	MT1-MMP act inh RFP	Rce1 inh	others
COc1ccc(-c2cc(C(F)(F)F)nc(NCc3cccnc3)n2)cc1	·	-1	32	-7	12	-1	-9	i
COc1ccccc1N1CCN(/N=C/C=C\c2ccccc2[N+](=O)[O-])CC1	·	0	36	-3	-8	7	-3	i
CC(N=C1NC(C)(C)Cc2ccccc21)C(=O)O (centres undefined)	-13	6	4	6	5	1	2	·
CC(C)(C)NC(=O)c1cccnc1Sc1ccccc1	-15	3	0	-4	11	0	0	i
COc1cc2ccccc2cc1C(=O)Nc1ccccc1N1CCCC1	·	·	61	·	25	0	0	i
CC1=C(C(=O)N(C)C)C(c2cccs2)NC(=O)N1 (centres undefined)	-16	-8	-10	3	·	-4	0	·
CCOc1ccc(CNS(=O)(=O)c2c(C)nc3scc(C)n3c2=O)cc1OC	-12	3	-9	-10	-4	-2	0	·
COc1ccc2c(C(=O)CCl)c[nH]c2c1	·	-1	-3	18	-152	-4	6	i
COc1ccc(-c2[nH]ncc2CN2CCN(Cc3cccs3)CC2)c(F)c1	-13	-2	-4	-4	10	-1	-2	i
Oc1c(Cl)cc(Cl)cc1C1=NNC(c2ccc(Cl)cc2)C1 (centres undefined)	·	-3	·	-3	·	-5	-3	·
Cc1[nH]nc2c1C(C(C)C)C(C#N)=C(N)O2 (centres undefined)	-16	-10	-10	-3	·	2	2	·
CS(=O)(=O)c1ccc(Cl)c(C(=O)NC2CCSc3ccccc32)c1 (centres undefined)	1	-11	12	-5	-8	-3	-6	i
O=C(Nc1ccccc1)N1N=C(c2ccc(F)cc2)CC1c1ccc(F)cc1 (centres undefined)	·	5	5	10	·	1	-5	i
COCCn1c(C)cc(C(=O)CSc2nnnn2C2CCCC2)c1C	-84	·	-14	·	60*	2	3	·
CCCn1c(SCC(=O)c2ccc3c(c2)NC(=O)CO3)nc2ccccc21	·	13	0	2	2	2	0	i
Cc1ccc(NC(=O)c2cc(S(=O)(=O)N3CCOCC3)cs2)cc1	-18	-4	-5	-1	-3	4	-8	i
COc1ccc(C2(O)CC3CCC(C2)N3c2nc(C)cc(C)c2C#N)cc1 (centres undefined)	-5	0	-12	-1	·	-8	-5	i
CC(=O)Nc1ccc(/C=C2/Sc3ccccc3C2=O)cc1	·	2	-4	7	·	8	10	i
CCNS(=O)(=O)c1ccc(C)c(-n2cnnn2)c1C	-4	8	-10	8	-20	-2	-2	i
O=C(Nc1ccc(Cc2ccncc2)cc1)c1ccc(Cl)c([N+](=O)[O-])c1	-23	-16	34	-5	·	-4	-19	i
O=[N+]([O-])c1ccc(/C=C/c2ccc3ccccc3n2)cc1	-30	-12	24	-11	-238	4	0	·
O=C(CCCN1C(=O)/C(=C/c2cccs2)SC1=S)Nc1cccc(O)c1	2	-2	36	-4	-17	2	-1	i
O=C(NCCc1ccccc1)C1CCC(Cn2c(=O)c3ccccc3n(Cc3cccc(F)c3)c2=O)CC1 (centres undefined)	·	4	-3	-11	5	-1	0	i
CCCCn1c(N)c(N(Cc2ccccc2OC)C(=O)COc2ccccc2OC)c(=O)[nH]c1=O	·	·	-9	·	-20	-3	0	i
CCCCNc1nc(NC)nc(Cl)c1SC	·	-8	·	-1	-10	-1	3	·
COc1cccc(NC(=O)N(C)C[C@H]2Oc3cc(C#Cc4ccncc4)ccc3S(=O)(=O)N([C@H](C)CO)C[C@H]2C)c1	-15&-7&6	·	·	·	-10	-2	3	·
CSCCC(NS(=O)(=O)c1ccc(C)cc1)C(=O)N1CC=C(c2ccccc2)CC1 (centres undefined)	·	·	-3	·	15	-2	-6	i
Cc1cc(-c2ccc([N+](=O)[O-])cc2)cc(C)n1	-19	·	·	·	-34	-1	-1	·
CCC1CCCCN1C/C=C/c1ccccc1[N+](=O)[O-] (centres undefined)	-7	8	1	13	·	10	7	i
O=C(NCc1nc2ccccc2[nH]1)c1ccc(S(=O)(=O)N2CCCC2)cc1	-12	6	2	1	5	-4	1	i
Cn1cc(S(=O)(=O)NCC2CCCO2)c(=O)n(C)c1=O (centres undefined)	-8	-6	2	3	-1	6	4	i
COc1cccc(N(C(=O)c2ccn[nH]2)C2(C(=O)Nc3c(C)cccc3C)CCCCC2)c1	-4	-10	-2	1	-101	2	-7	·
COc1ccc(CNC(=O)CCSCc2cccc(Cl)c2)cc1	4	34	13	3	3	5	4	i
CCOC(=O)c1c(NC(C)=O)sc2c(OCC(O)CNC(C)(C)C)c(Br)ccc12 (centres undefined)	12	1	23	-10	-55	-12	-12	i
O=C(CNCc1ccncc1)Nc1cc(S(=O)(=O)N2CCCCC2)ccc1Cl	·	8	-7	104*	-5	-4	-4	i	eIF4H FP inh retest=71*;PABP polyA inh retest=40
COc1cc(NC(=O)CSc2ccc(-c3ccccn3)nn2)cc(OC)c1	-22	-6	-13	-6	10	7	4	i
COc1ccc(CNc2nc3ccccc3n2C(C)C)cc1	-10	13	1	4	8	-3	2	i
Cc1cc2ncn(/N=C/c3cc(Br)ccc3O)c2cc1C	·	-4	·	-2	-32	·	·	i
COc1ccc(-c2nnc(SCC(=O)NC3CCCc4ccccc43)n2N)cc1 (centres undefined)	·	4	1	-7	17	1	0	i
CCN1CC(=O)Nc2cc(S(=O)(=O)N3CCOCC3)ccc21	-23	3	-13	-5	-9	4	1	i
Cc1cc(C)nc(/N=C2\NC(=O)CC(C(=O)O)N2c2ccc(C)c(C)c2)n1 (centres undefined)	-4	-4	-6	1	14	-1	0	i
Cc1ccc(C)c(N2CCN(C(=O)c3cn(C)c4ccc(S(=O)(=O)N(C)C)cc4c3=O)CC2)c1	-11	-3	-11	0	-64	3	0	i
O=C(NC1CCCC1)c1ccc(Cl)c(S(=O)(=O)N2CCOCC2)c1	-9	-6	-9	-7	16	4	0	·
O=C(Nc1ccccc1N1CCN(c2ccccc2)CC1)c1ccccc1	·	-1	4	-5	13	-2	-6	i
N#Cc1c(N)nc(SCC(=O)NCc2ccc3c(c2)OCO3)c(C#N)c1-c1cccs1	-4	2	10	-12	·	0	2	i
Nc1sc2c(c1C(=O)NCCc1ccccc1)CCC2	·	11	0	-2	8	-10	6	i
CC(NC(=O)Cc1ccc(F)cc1)c1ccccc1 (centres undefined)	-14	-5	-3	-11	-15	4	1	i
CN1OC[C@@H]2CN(Cc3ccccc3)[C@H](c3cccc(Oc4ccccc4)c3)C[C@@H]21	-6	·	·	·	6	-1	-2	·
O=C(CCN1Cc2ccccc2C1)c1ccc2c(c1)OCCO2	-3	-7	?	-3	·	1	0	i
O=C(CCn1nc(-c2ccc(Cl)cc2)ccc1=O)N1CCN(c2ccccn2)CC1	2	-6	·	-14	·	5	4	i
Cc1sc2nc(-c3cccnc3)[nH]c(=O)c2c1-c1ccccc1	-18	22	-3	1	-12	16	10	i
O=C(Cc1ccc(Br)cc1)NC1CCCCC1	-10	3	25	-2	-3	6	3	i
O=C(Cn1c2ccccc2c(=O)c2ccccc21)N/N=C/c1cc([N+](=O)[O-])ccc1N1CCCCC1	-3	4	-12	-8	21	2	1	i
C=CCn1c(N)c(C(=O)OCC)sc1=S	·	-6	-4	-13	-15	2	7	i
O=C(c1ccccc1-c1nc(-c2ccccc2Cl)no1)N1CCOCC1	0	4	-6	0	17	-3	-1	i
O=C(O)c1cnn(-c2nc(-c3ccc(Br)cc3)cs2)c1C(F)(F)F	-14	4	4	5	-18	1	0	i
CCCCCCn1c(=O)n2n(c1=O)[C@@H]1CN(S(=O)(=O)c3ccc(C)cc3)C[C@]1(O)[C@@H](OC(=O)NCc1ccccc1F)C2	1	·	·	·	1	3	-6	·
O=C1CCCC1C(=O)Nc1ccc2ccccc2c1 (centres undefined)	-15	6	-18	7	-3	1	1	i
Cc1ccc(Oc2ncccc2/C=N/OCc2ccc(Cl)c(Cl)c2)cc1	-20	4	12	10	·	-3	-1	i
CCCN1CCN(CCCNC(=S)Nc2ccc3nc(N4CCN(CC)CC4)cc(C)c3c2)CC1	-8	-8	44	16	1	4	2	i

Part of the list above in order of SMILES length, falling:
SMILES	UUG fidelity	PABP polyA inh	CSC inhib	eIF4H FP inh	HIV Env fusion	MT1-MMP act inh	MT1-MMP act inh RFP	Rce1 inh	others
CN1OC[C@@H]2CN(Cc3ccccc3)[C@H](c3cccc(Oc4ccccc4)c3)C[C@@H]21	-6	·	·	·	6	-1	-2	·
CCCN1CCN(CCCNC(=S)Nc2ccc3nc(N4CCN(CC)CC4)cc(C)c3c2)CC1	-8	-8	44	16	1	4	2	i
O=C(NC1CCCC1)c1ccc(Cl)c(S(=O)(=O)N2CCOCC2)c1	-9	-6	-9	-7	16	4	0	·

(cont.)
SMILES	UUG fidelity	PABP polyA inh	CSC inhib	eIF4H FP inh	HIV Env fusion	MT1-MMP act inh	MT1-MMP act inh RFP	Rce1 inh	others
NS(=O)(=O)c1ccc(NC(=O)c2cc(-c3ccccc3O)n[nH]2)cc1	-7	6	17	0	14	0	2	i
COc1ccc(N(Cc2cc3ccccc3[nH]c2=O)S(=O)(=O)c2ccc(C)cc2)cc1	-23	-11	-4	3	-31	-4	-10	i
O=C(O)c1cn(-c2ccccc2)nc1-c1cccnc1	-3	6	·	-7	-15	2	-4	i
O=C1c2ccccc2C(=O)N1CCCN1C(=O)c2ccccc2C1=O	-10	·	·	·	-4	5	-1	·
Cc1ccc(Oc2cc(C)nc(-c3ccccc3O)n2)cc1	8	4	·	-7	·	0	-2	i
CCN(CC)S(=O)(=O)c1cccc(C(=O)NC(C)C(c2cccs2)N2CCCC2)c1 (centres undefined)	·	-5	-8	0	-1	-1	-1	i
Cn1cnc2cc(NCc3ccccc3O)ccc21	-18	3	-8	-11	0	-2	3	i
COc1ccccc1-c1oc2ccccc2c1-c1ccc2c(c1)OCO2	-3	·	26	·	16	-3	-9	·
CSc1ccc(CN2CCC2(C)C(=O)Nc2cccc(Oc3ccccc3)c2)cc1 (centres undefined)	-6	·	·	·	2	-3	-5	·
O=C(c1ccc2c3c(cccc13)CC2)C1CCCN(Cc2ccncc2)C1 (centres undefined)	-5	-6	36	-8	20	-8	-27	i
COc1cccc(/C=C/C(=O)OCC(=O)NCc2ccco2)c1OC	·	-2	4	-3	1	0	3	i
CC(C)C[C@@H](CN1CCCC1CN1C(=S)NC[C@@H]1Cc1ccc(O)cc1)N1C[C@H](Cc2ccc(O)cc2)N(CC2CCCCC2)C1=S (some centres undefined)	-20	·	·	·	42	-8	-22	·
CCC(Oc1ccc(C)c(C)c1)C(=O)O (centres undefined)	-15	-4	-10	-14	31	0	1	i
O=C(CN1CCCCC1)Nc1scc2c1c(=O)oc1ccccc12	-11	2	-16	-6	-70	3	3	i
CCC(CC)C(=O)N1CC(=O)Nc2ccc(F)cc2C1c1ccccc1 (centres undefined)	-19	-1	1	1	21	-8	-1	i
COc1ccc(NC(=O)CCn2c(=O)c3cccn3c3ccccc32)c(OC)c1	·	14	6	-6	9	-4	-1	i
Cc1ccc(NC(=O)Cn2cnc3c(=O)n(C)c(=O)n(C)c32)c(C)c1	-6	0	·	-6	-1	-2	7	i
Clc1ccccc1CN(Cc1ccco1)Cc1nnnn1C1CCCC1	-17	-7	16	-3	-179	-5	-4	·
O=c1[nH]c2cc3c(cc2cc1CN(Cc1cccs1)Cc1nnnn1Cc1ccco1)OCCO3	·	52*	15	38*	·	0	0	i	eIF4H FP inh retest=76*;PABP polyA inh retest=55*
CC1=C(C(=O)Nc2ccc(C)cc2)C(c2ccc(C)o2)C2=C(CC(C)(C)CC2=O)N1 (centres undefined)	-8	2	0	-7	·	-1	4	·
